Marburg entry inh = qHTS for inhibitors of binding or entry into cells for Marburg Virus | Marburg virus pseudotyped entry inhibition, cell reporter; control for the full effect not named in the record; about a third of the inactives were read at about 46 µM | Potency, µM (top dose mostly 37.8 µM), inactives show top-dose activity change, negative = inhibition, most hits filed as inhibitors | 1.8% of 300,000 active; active = well fitted inhibition curve with a large enough effect; inconclusive = small, poorly fitted or top-dose-only effect, or effect the other way; inactive = flat fitted curve, though single readings scatter; tested in HEK293 cells; about a fifth of its hits are not listed in these tables; further: on the % scale 0 is the no-effect control and ±100 the full control effect; luciferase read-out
2A StopGo = High Throughput Screening for Foot and Mouth Disease Virus Antivirals; Potency, µM (top dose mostly 57.9 µM), for inactives: at the highest dose signal change, negative = less light; 1.2% of 410,000 active; human cells with a luciferase reporter of 2A StopGo recoding; control for the full effect not named in the record; AID 1159524, 2015; active = well fitted falling curve with a large enough effect; inconclusive = small, poorly fitted or top-dose-only effect; inactive = no such curve, though single readings can be large or run the other way; tested in HEK293T cells; further: on the % scale 0 is the no-effect control and ±100 the full control effect; nearly all actives have a fitted effect of over 45% in size; luciferase light after 4 h
SARS PLpro yeast = qHTS of Yeast-based Assay for SARS-CoV PLP; S. cerevisiae expressing SARS-CoV PLpro, growth rescue; control for the full effect not named in the record; Potency, µM (top dose mostly 32.9 µM), without a hit: top-dose activity, positive = growth rescue; 0.19% of 330,000 active; AID 485353, 2010; active means well fitted rising curve with a large enough effect; inconclusive means small, poorly fitted or top-dose-only effect; inactive means no such curve, though single readings can be large or run the other way; further: 0% is about no effect; nearly all actives have a fitted effect of over 55% in size; growth read by luminescence after 48 h
Cruzain inh noDet = qHTS Assay for Promiscuous and Specific Inhibitors of Cruzain (without detergent); purified cruzain, Z-FR-AMC fluorescence, no detergent; AID 1476, 2009; Potency, µM, for the others: max response, negative = inhibition, usual class: inhibitors; Cruzipain (Trypanosoma cruzi), P25779; 2.3% of 200,000 active;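 further: plate controls were enzyme without inhibitor for no effect and buffer without enzyme for full effect; nearly all actives have a fitted effect of over 40% in size; top concentration of the series not given in the record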
Target sequence (P25779 123-467 limits assumed): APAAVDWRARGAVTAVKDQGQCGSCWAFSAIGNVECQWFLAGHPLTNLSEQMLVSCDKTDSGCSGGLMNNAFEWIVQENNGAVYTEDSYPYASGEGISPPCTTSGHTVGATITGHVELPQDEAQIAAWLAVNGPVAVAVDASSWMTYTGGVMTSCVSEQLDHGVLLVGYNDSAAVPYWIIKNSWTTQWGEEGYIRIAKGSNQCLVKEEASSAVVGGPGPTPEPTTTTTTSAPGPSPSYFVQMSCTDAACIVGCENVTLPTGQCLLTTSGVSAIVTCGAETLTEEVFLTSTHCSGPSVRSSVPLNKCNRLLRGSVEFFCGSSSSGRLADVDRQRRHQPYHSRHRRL
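Purified cruzain at 1.5 nM, pre-incubated 15 min with compound at room temperature in 100 mM sodium acetate pH 5.5, 5 mM DTT, 0.00005% Triton X-100. Reaction started with 2 uM Z-FR-AMC; AMC fluorescence increase over 60 s gives rate.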
LASV entry inh = qHTS for Inhibitors of binding or entry into cells for Lassa Virus. Lassa virus pseudotype entry inhibition, cell reporter; control for the full effect not named in the record. Potency, µM (titrated, usually from 37.9 µM), without a hit: at the highest dose activity change, negative = inhibition, actives largely listed as inhibitors. 1.2% of 300,000 active. AID 540256, 2011; active means well fitted inhibition curve with a large enough effect; inconclusive means small, poorly fitted or top-dose-only effect, or effect the other way; inactive means flat fitted curve, though single readings scatter; tested in HEK293 cells; further: on the % scale 0 is the no-effect control and ±100 the full control effect; nearly all actives have a fitted effect of over 50% in size; luciferase read-out
NS1 function inh = qHTS Assay for Inhibitors of Influenza NS1 Protein Function | S. cerevisiae slowed by influenza A NS1, growth recovery by OD600 | Potency, µM (series often up to 46.1 µM), inactives show at the top dose activity, positive = more growth | 0.4% of 270,000 active; active means well fitted rising curve with a large enough effect; inconclusive means small, poorly fitted or top-dose-only effect; inactive means no such curve, though single readings can be large or run the other way; further: nearly all actives have a fitted effect of over 50% in size
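S. cerevisiae expressing influenza A NS1, grown in glucose, washed, then diluted 1:100 into pH 6.0 -URA galactose medium with 23 nl compound. Growth recovery read as OD600; NS1-free strain serves as control.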
RE007 growth inh = qHTS Assay for Inhibitors of the HIV-1 protein Vpr; S. pombe RE007 Vpr strain, BacTiter-Glo ATP luminescence, 24 h; control for the full effect not named in the record; Potency, µM (titrated, usually from 92.2 µM), without a hit: at the highest dose activity change, negative = less growth; 0.21% of 360,000 active; AID 651644, 2012; active = well fitted falling curve with a large enough effect; inconclusive = small, poorly fitted or top-dose-only effect; inactive = no such curve, though single readings can be large or run the other way;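 further: on the % scale 0 is the no-effect control and ±100 the full control effect; nearly all actives have a fitted effect of over 50% in size; the assay follows cell death caused by Vpr and the record does not say whether a fall means rescue or toxicity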
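Fission yeast RE007 carrying one integrated HIV-1 vpr copy, seeded at OD 0.01 in PMG+AL medium with 23 nL pinned compound. Grown 24 h at 30 degrees; viability read by BacTiter-Glo luminescence after 5 min.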
Cruzain Triton = qHTS Assay for Promiscuous and Specific Inhibitors of Cruzain (with detergent). Cruzipain (Trypanosoma cruzi), P25779. purified cruzain, Z-FR-AMC fluorescence, 0.01% Triton. Potency, µM, without a hit: max response, negative = inhibition, actives largely listed as inhibitors. 0.43% of 200,000 active. AID 1478, 2009;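 further: plate controls were neutral wells for no effect and buffer without enzyme for full effect; nearly all actives have a fitted effect of over 40% in size; top concentration of the series not given in the record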
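Read-out: AMC fluorescence (360 nm excitation, 450 nm emission), four reads over 2 min, first-to-third difference used. Conditions: cruzain 1.5 nM, Z-FR-AMC 2 uM, pH 5.5 acetate, 5 mM DTT, 0.01% Triton X-100.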
An asterisk follows results filed as active; ? = inconclusive; . = no result given; & = joins results of further samples; [ ] = dose if it differs, or a comment. Unless noted, the call rests on the fitted dose curve; in most records, active means well fitted curve in the direction sought with a large enough effect; inconclusive means small, poorly fitted or top-dose-only effect, or another doubt; inactive means no such curve, though single readings can be large; an effect the other way counts as inactive or inconclusive. Potency means the concentration at half of the fitted maximal effect.

structure	Marburg entry inh	2A StopGo	SARS PLpro yeast	Cruzain inh noDet	LASV entry inh	NS1 function inh	RE007 growth inh	Cruzain Triton
CCOC(=O)CC(Nc1nc(N2CCOCC2)nc(N2CCOCC2)n1)c1ccccc1Cl (stereo not given)	0%&0%[46.1 µM]	0%	3%	?	-20%	?	1%	-3.2%
CCc1ccc(OCC(=O)Nc2ccc(-c3nc4ncccc4o3)cc2)cc1	.	24%	.	10%	0%[46.1 µM]	.	.	-0.4%
CC1CCC(NC(=O)Cn2c3c(c(-c4ccccc4Cl)cc2=O)CCC3)CC1 (stereo not given)	.	?	-10%	-4%	.	7%	-16%	-9.3%
Cn1c(CC(=O)Nc2cccc(Cl)c2Cl)nnc1SCC(=O)NC1=NCCS1	10%[46.1 µM]	10%	9%	.	.	5%	1%	.
COc1c(C)cc(C(=O)C2CCCN(C(=O)c3csc(C)n3)C2)cc1C (stereo not given)	.	-2%	1%	.	.	-12%	5%	.
COC(=O)CC1C(=O)NCCN1C(=O)c1ccc2oc(C(C)C)nc2c1 (stereo not given)	.	35%[activator]	7%	.	.	-5%	10%	.
Cc1cc(OCC(=O)NC2CC(C)(C)NC(C)(C)C2)c2c(C)cc(=O)oc2c1	-27%[46.1 µM]	5%	-1%	.	-2%[46.1 µM]	-14%	-6%	.
CCOc1ccc(-c2nc(CSCC(=O)NCc3ccc(C)cc3)c(C)o2)cc1	.	-5%	.	-8%	3%[46.1 µM]	.	.	-0.4%
C=CCNC(=O)c1c(Cl)cccc1Cl	16%	-2%	19%	-5%	20%	6%	1%	0.8%
O=C(C(=O)N1CCCCC1)c1cn(CC(=O)N2CCCCCC2)c2ccccc12	?	-4%	6%	.	5%	15%	-3%	.
CC(C)CC(=O)Nc1c(C(=O)N2CCN(c3ccccc3F)CC2)oc2ccccc12	?	54%[activator]	.	?	?	.	.	-5.3%
CCN(CCO)C(=O)CC1C(=O)NCCN1Cc1c(F)cccc1Cl (stereo not given)	0%[46.1 µM]	-2%	0%	.	1%	-1%	-3%	.
CCc1ccccc1NC(=O)c1ccc(Cn2cc([N+](=O)[O-])cn2)cc1	19%	-11%	-1%	-9%	18%	-17%	2%	-3.4%
CCCCNc1nc2c(c(=O)n(C)c(=O)n2C)n1CCC	.	-20%	0%	.	.	3%	-9%	.
COC(=O)COc1ccc(Cl)cc1C1Nc2ccccc2C(=O)N1c1ccc(OC)cc1 (stereo not given)	-2%	.	5%	4%	1%	0%	-9%	-8.7%
CCN(CC)S(=O)(=O)c1ccc(C(=O)NC(=S)N(CCO)Cc2ccccc2)cc1	.	-12%	1%	.	.	-1%	18%	.
CC(CCc1ccco1)NC(=O)Nc1cccc(F)c1 (stereo not given)	0%	38%[activator]	-10%	-13%	?	-8%	-9%	-9.1%
CC1CN(CC(=O)Nc2nc3ccccc3s2)CC(C)O1 (stereo not given)	13%	20%	-5%	.	14%	2%	-5%	.
O=C(Nc1cccc2ncccc12)c1ccc(OCc2ccccc2)cc1	.	?	13%	.	.	10%	-4%	.
Cc1cc(C)cc(C(=O)N(c2ccccn2)C(C)c2ccco2)c1 (stereo not given)	-17%	31%[activator]	?	-5%	-5%	0%	10%	4.0%
CCCOc1ccc(/C=C/C(=O)NC2CCCCC2)cc1OC	17%	0%	1%	.	4%	-2%	3%	.
CC(C)COc1ccc(C(=O)Nc2ccc([N+](=O)[O-])cc2)cc1	1%	24%	1%	.	?	-2%	1%	.
N=c1ccn(O)cc1CCc1ccccc1	-2%[46.1 µM]	-2%	.	.	-2%[46.1 µM]	.	-18%	.
O=C(Nc1ccc(F)cc1)c1ncn(-c2ccccc2)n1	?	0%	.	-13%	?	.	.	-2.0%
O=C(OCC(=O)N1CCCC1=O)c1nc(Cl)c(Cl)c(Cl)c1Cl	.	?	1%	.	.	-42%	-12%	.
Cn1c(=S)oc2ccccc21	2%[46.1 µM]	-1%	0%	.	5%	10%	2%	.
O=C(NCCc1ccccc1)c1c[nH]c2c(F)cccc2c1=O	-8%	23%	1%	.	8%	-11%	3%	.
Cc1csc(CN(C)C(=O)CC2C(=O)NCCN2CC(C)(C)C)n1 (stereo not given)	?	-6%	1%	.	9%[46.1 µM]	5%	10%	.
COc1cc(NC(=S)NNC(=O)CC(C)C)c(OC)cc1Cl	25%	-1%	2%	4%	-6%	-8%	4%	-5.3%
CN1CCN(CC(C)(C)NS(=O)(=O)c2ccccc2)CC1	4%	-14%	-1%	.	2%	.	0%	.
Cc1ccc2c(c1)C1CN(C)CCC1N2C(=O)COc1ccccc1F (stereo not given)	?	6%	1%	.	-11%[46.1 µM]	0%	4%	.
COc1cc(/C=C/c2cccc[n+]2C)ccc1OCC(=O)Nc1cccc(Cl)c1	-19%[46.1 µM]	10%	-2%	.	?	-4%	?	.
CN(C)S(=O)(=O)N(Cc1ccc(Br)cc1)c1ccccc1	-9%	?	-20%	-1%	-14%	-8%	-10%	-1.0%
CCCCSCCCNC(=O)c1cn(CC)c2ccc(S(=O)(=O)N3CCOCC3)cc2c1=O	-7%&-7%[46.1 µM]	0%&16%	0%	?	-6%[46.1 µM]	15%	-2%	-13%
Fc1cccc(-c2nnn3c2nc(NCc2ccc4c(c2)OCO4)c2ccccc23)c1	3%[46.1 µM]	30%[activator]	.	22%	2%[46.1 µM]	.	.	-1.2%
COC(=O)C1(C)NC(c2ccccc2F)C2C(=O)N(c3ccccc3)C(=O)C21 (stereo not given)	.	2%	5%	.	.	?	4%	.
Cc1noc(C)c1S(=O)(=O)NCCN1CCN(c2ccccc2)CC1	?	6%	.	1%	-9%	-12%	-16%	4.4%
O=c1[nH]c(CSc2nc(-c3ccccc3)cs2)nc2ccccc12	-34%	-13%	-5%	?	8%	-3%	8%	-5.9%
CN(C)CC(=O)Nc1ccc(S(N)(=O)=O)cc1	?	24%	1%	-5%	-2%	5%	11%	-2.7%
Cc1cccc(N2CCN(C(=O)c3ccc4c(c3)N(Cc3cccc(Cl)c3)C(=O)c3ccccc3S4=O)CC2C)c1 (stereo not given)	.	-19%	.	-18%	?	.	.	-1.2%
O=c1[nH]c(CSc2nnc(-c3ccccc3)n2C2CCCCC2)nc2ccccc12	0%	-18%	3%	-6%	?	14%	-15%	-0.3%
CC(C)(C)c1ccc(C(=O)NCC(=O)N2CCCCCC2)cc1	-8%	9%	0%	.	-1%	14%	-13%	.
CC(C)(C)c1ccccc1OCC(=O)NCCC(=O)O	-14%	-12%	2%	-8%	12%	-6%	22%	-0.6%
Cc1cccc(N=Nc2ccc(O)c3ncccc23)c1	4.5µM*	6%	.	20µM*	?	-72%	?	1.9%
CN(C)C(=O)CSc1nc2ccc(C(=O)c3ccccc3)cc2[nH]1	.	42%[activator]	7%	.	.	-12%	21%	.
COCC(=O)N(Cc1cc2cc(C)ccc2[nH]c1=O)c1ccccc1	.	45%[activator]	-7%	.	.	22%	-13%	.
Cc1onc(-c2c(F)cccc2Cl)c1C(=O)NC1=NCCS1	?	-21%	-1%	-6%	23%	6%	9%	7.3%
COc1ccc(OC)c(Nc2nc(-c3sc(NC(=O)C(C)(C)C)nc3C)cs2)c1	.	-26%	-2%	-2%	.	12%	6%	-1.2%
Cc1ccc(S(=O)(=O)Nc2c(C)n(C)n(-c3ccccc3)c2=O)cc1	1%[46.1 µM]	-6%	0%&-7%	6%	?	0%	15%&-6%	2.4%
O=C(O)c1cc(-c2ccc(Br)s2)nc2ccccc12	.	50%[activator]	-3%	.	.	0%	-6%	.
Cc1occc(=O)c1OCc1c(Cl)cccc1Cl	.	0%	3%	.	.	-6%	22%	.
O=C(CN(C(=O)CNS(=O)(=O)c1ccccc1)c1ccc(Cl)cc1)NCC1CCCO1 (stereo not given)	-18%[46.1 µM]	3%	1%	.	.	5%	5%	.
C/C(=N\NC(=O)c1cccc(O)c1)c1cccc(NC(=O)c2ccc(F)cc2)c1	.	27%	-5%	.	.	-6%	24%	.
O=S1(=O)C[C@@H](N2CCOCC2)[C@H](N2CCOCC2)C1	10%	3%	7%	-5%	0%	-6%	10%	-0.8%
CCOC(=O)C1CCN(C(C)C(=O)c2c[nH]c3ccccc23)CC1 (stereo not given)	.	-13%	7%	.	.	-1%	3%	.
Cc1nnc(SCC(=O)N2CCOCC2)[nH]c1=O	10%	3%	8%	-2%	2%	1%	7%	-1.6%
Cc1cccc(C)c1NC(=O)CN(C)C(=O)Cn1c(=O)cnc2ccccc21	.	-8%	7%	.	.	4%	-2%	.
COc1cc(NC(=O)c2cccs2)c(OC)cc1NC(=O)CCC(=O)Nc1ccc(C)cc1	?	-14%	0%	.	?	8%	-10%	.
COc1ccc(CC(=O)OCn2nnc3ccccc3c2=O)cc1	15%	-20%	-9%	-3%	22%	-8%	-4%	-2.3%
Cn1nnnc1SCc1ccccc1[N+](=O)[O-]	12%	-12%	1%	-7%	15%	3%	-11%	1.5%

Following part:
structure	Marburg entry inh	2A StopGo	SARS PLpro yeast	Cruzain inh noDet	LASV entry inh	NS1 function inh	RE007 growth inh	Cruzain Triton
CCOC(=O)CN(C(=O)Cn1nnc(-c2ccc(OC)cc2)n1)C(C(=O)NC1CCCC1)c1ccc(F)cc1 (stereo not given)	-12%	.	8%	7%	-12%	-1%	-8%	-4.2%
N#C/C(=C\c1cn(-c2ccccc2)nc1-c1cc2ccccc2o1)c1nc2ccccc2[nH]1	13%	-4%	-4%	7.9µM*	?	0%	-20%	-2.6%
CC(C)CN(C(=O)COC(=O)c1ccccc1SCC(=O)N1CCCC1)C1CCS(=O)(=O)C1 (stereo not given)	?	-5%	.	.	1%	.	9%	.
COc1cccc(C(=O)CN2C3=NCCCN3c3ccccc32)c1	-9%[46.1 µM]	-22%	-4%	-4%	22%	12%	-4%	-1.5%

High-throughput results: PubChem BioAssay, National Center for Advancing Translational Sciences (NCATS)
